eIF4H FP inh = inhibitors of RNA binding by human eIF4H | inhibition, % at 35 µM | Q15056 | actives 0.94% (n = 290,000) | eIF4H fluorescence polarization binding assay;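 active means 50% or more with normal probe brightness, or confirmed in later tests; inconclusive means above 50% with abnormal brightness, or retests that disagree; inactive means below 50% or failed in later tests; about a fifth of its hits are not listed in these tables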;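 further: calls also rest on retests at 20 µM and on dose response follow-up; 0% = protein and probe with vehicle and 100% = probe without protein; strong numbers were not always called active; many hits fall short of the cut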
Yeast UUG start = yeast start codon fidelity modulation | S. cerevisiae UUG-firefly luciferase reporter, luminescence/redox ratio | activity score, % at 18.7 µM | actives 0.13% (n = 350,000);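 active means replicate mean at a twofold rise or more, about +100% in these data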;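 further: firefly luciferase made from a UUG start codon reports start codon fidelity; reporter light over untreated wells divided by growth signal over untreated wells; some hits fall short of that in this replicate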
MT1-MMP act inh = MT1-MMP (human) activation inhibition | P50281 | HT1080 RFP-PRO-GFP cells, GFP/RFP ratio fluorescence, overnight; percent of plate control window, DMSO zero | GFP/RFP ratio change, % at 20 µM | actives 0.061% (n = 360,000) | AID 651647;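 active means GFP/RFP ratio change of at least 30% with cell ATP level not reduced by more than half and red fluorescence within 50% of control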; further: strong numbers were not always called active
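Assay system: HT1080 cells carrying an RFP-PRO-GFP reporter | Dosing: Single dose of 20 µM compound, 1% DMSO final | Incubation: Cells overnight before dosing, compound overnight, 37 °C, 5% CO2 | Evaluation: GFP/RFP fluorescence ratio | Control set: DMSO and RFP-L50D-GFP cell wells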
CSC inhib = blocks cancer stem cells; actives 1.1% (n = 300,000); inhibition, % at 7.5 µM; cancer stem cell-like cells viability, luminescence;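 active means mean at 75% or more and at least half the replicates too; inconclusive means mean and replicates disagree; tested in HMLE shEcad cells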;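 further: 0% = median of negative and 100% = median of positive control wells; the first replicate is given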
HIV Env fusion = blocks HIV Env-driven cell-cell fusion; actives 1.1% (n = 360,000); inhibition, % at 12.3 µM; HeLa-JRFL Env/CEM21 cell fusion, luciferase;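 active means mean replicate inhibition score of at least 50 and every replicate individually at or above 50; inconclusive means only one of the two criteria met; inactive means mean below 50 and not all replicates reaching 50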;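 further: 0% = plate neutral controls and 100% = maraviroc near 300 nM; one replicate is shown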
Rce1 inh = blocks yeast Ras-converting enzyme. yeast membranes, quenched prenylated peptide cleavage fluorescence. calls only. actives 0.27% (n = 290,000). AID 2563;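 active means fall in fluorescence gain of 50% or more versus controls, with final raw signal at or below 3038400; inconclusive means same 50% fall but final raw signal above 3038400; inactive means fall in fluorescence gain under 50%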;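 further: plate controls were neutral control wells for no effect and wells lacking membranes for full effect; tested at 10 µM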
PABP FP inh = blocks human PABP binding to poly(A) RNA; inhibition, % at 35 µM; actives 1% (n = 290,000); P11940; fluorescence polarization;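 active means 50% or more with normal probe brightness, or confirmed in later tests; inconclusive means above 50% with abnormal brightness, or retests that disagree; inactive means below 50% or failed in later tests; about a fifth of its hits are not listed in these tables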;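 further: calls also rest on retests at 20 µM and on dose response follow-up; controls were probe without protein and protein plus probe with vehicle; some compounds called inactive have numbers as strong as hits; many hits fall short of the cut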
Target sequence (P11940 whole entry, looked up): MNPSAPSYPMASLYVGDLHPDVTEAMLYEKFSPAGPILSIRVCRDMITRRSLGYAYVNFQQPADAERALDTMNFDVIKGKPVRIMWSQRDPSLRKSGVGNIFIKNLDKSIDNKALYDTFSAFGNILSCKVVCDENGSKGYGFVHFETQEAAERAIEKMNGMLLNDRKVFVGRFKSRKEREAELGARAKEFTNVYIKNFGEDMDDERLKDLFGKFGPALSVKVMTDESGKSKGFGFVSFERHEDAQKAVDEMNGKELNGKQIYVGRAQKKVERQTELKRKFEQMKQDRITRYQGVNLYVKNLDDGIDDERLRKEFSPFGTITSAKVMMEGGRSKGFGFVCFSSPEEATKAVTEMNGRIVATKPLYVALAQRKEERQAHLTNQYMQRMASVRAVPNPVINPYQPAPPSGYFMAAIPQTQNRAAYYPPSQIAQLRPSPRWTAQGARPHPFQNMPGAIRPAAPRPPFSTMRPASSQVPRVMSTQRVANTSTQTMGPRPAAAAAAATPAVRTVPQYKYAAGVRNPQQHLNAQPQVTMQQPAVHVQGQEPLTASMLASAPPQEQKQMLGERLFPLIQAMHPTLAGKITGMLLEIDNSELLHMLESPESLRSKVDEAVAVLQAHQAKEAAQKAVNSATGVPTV
eIF4H FP inh retest = second read-out of eIF4H FP inh, no call of its own (marks repeat the call); inhibition, %; compound at 20 µM; confirmation average;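 mean of two retest wells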
PABP FP inh retest = recorded beside PABP FP inh, whose call it bears; inhibition, %; compound at 20 µM; confirmation repeats;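 mean of two retest wells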
MT1-MMP act inh RFP = second read-out of MT1-MMP act inh, no call of its own (marks repeat the call); RFP signal change, %; measured here: RFP expression control read;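 0 = vehicle wells; hits needed this value within 50% of zero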
The depositor's hits bear a star; i = inactive; ? = inconclusive; . = not tested or not shown.

SMILES	eIF4H FP inh	Yeast UUG start	MT1-MMP act inh	MT1-MMP act inh RFP	CSC inhib	HIV Env fusion	Rce1 inh	PABP FP inh	others
COc1ccc(/C=C/C(=O)OCC(=O)N2CCc3ccccc32)cc1	.	-20	4	5	.	-6	.	.
CNc1ccccc1C(C)(C)c1cc(-c2ccc(F)cc2)no1	-11	-13	-1	-23	1	66*	i	-4
CC1CCCCN1CCCNC(=O)CN1C(=O)CSc2ccc(S(=O)(=O)N3CCOCC3)cc21 (centres undefined)	.	-2	2	9	-5	-5	i	.
CCc1noc(C)c1C(=O)N1CC(C)OC(C)C1 (centres undefined)	-2	-6	4	12	-5	.	i	1
O=C(Nc1cccc(S(=O)(=O)NC2=NCCC2)c1)c1ccc(F)cc1	.	9	-2	-8	-10	13	.	.
CCC(C)N(C(=O)COC(=O)c1nc2nc(C)cc(C)n2n1)C1CCS(=O)(=O)C1 (centres undefined)	.	2	-1	1	-17	.	i	.
CCC(C)NC(=O)C1c2cc(OC)c(OC)cc2C(=O)N(C)C1c1ccc(OC)cc1 (centres undefined)	4	-11	3	2	5	7	i	76	eIF4H FP inh retest=-5;PABP FP inh retest=5
CCCCNC(=O)C1CCN(S(=O)(=O)N2CCCCCC2)CC1	-2	-4	0	5	-19	-10	i	-9
CC1(C)Cc2c(c(N3CCCC3)nc3sc4c(N5CCN(CCO)CC5)ncnc4c23)CO1	-13	-11	-2	-4	38	.	.	-4
COc1cc(NC(=S)N2CCN(CCO)CC2)cc(OC)c1	-1	-24	-1	1	6	-2	i	-11
Cc1ccc(NC(=O)c2cnccn2)c(OC(F)F)c1	2	-7	-3	-1	-9	-8	i	10
COc1ccccc1/C=C(/NC(=O)c1ccc(Cl)cc1Cl)C(=O)O	-2	.	3	8	10	-1	i	8
CCc1cccc(NC(=O)c2cccc3c2C(=O)N(C2CCCCC2)C3)c1	-2	5	-3	-1	54	.	i	-14
O=C1C2C3C=CC(C3)C2C(=O)N1c1ccc(N2CCN(c3ccccn3)CC2)c([N+](=O)[O-])c1 (centres undefined)	34	-4	-1	-28	?	5	i	4
COc1ccc(N2C(S)=C(C#N)C(=O)NC23CCCCC3)cc1	-7	.	2	7	-11	6	i	18
COc1ccc(CC(=O)n2nc(-c3ccc(Cl)cc3)nc2NCc2ccco2)cc1	10	-15	-1	-10	34	-58	.	-2
O=C(NCc1ccc(F)cc1)c1ccccc1OCc1ccccc1	-5	-12	-12	-26	-5	8	i	4
Cc1ccc(CS(=O)(=O)Cc2ccc(C(=O)NCC3CCCO3)o2)cc1 (centres undefined)	1	-9	6	3	-15	29	i	5
COc1ccc(-n2c(=O)c3c4c(sc3n(CC(=O)Nc3cc(C)[nH]n3)c2=O)CCC4)c(OC)c1	-1	.	-6	-1	-33	-9	i	-8
CC1(C)Oc2ccc(C(=O)N3CCCC3)cc2N(CC(=O)NCc2ccccc2)C1=O	-5	-16	0	5	-13	.	i	-4
Cc1cccc(NC(=O)C2(C)CC3c4ccccc4C2c2ccccc23)c1C (centres undefined)	5	.	-9	-12	0	.	i	7
Cc1ccc(S(=O)(=O)N2CCN(C(=O)Cc3c(F)cccc3Cl)CC2)cc1	.	.	-1	-1	19	0	i	.
CCOc1ccc(C(C)NC(=S)NCc2ccc(Cl)cc2)cc1 (centres undefined)	-3	.	0	-4	2	3	i	-3
O=c1[nH]c(CSc2ccccn2)nc2c1oc1ccccc12	11	.	4	4	3	7	i	-6
CCCn1c(N)c(N(CCOC)C(=O)c2ccc(N3CCCC3=O)cc2)c(=O)[nH]c1=O	.	.	2	8	-9	-20	i	.
COc1ccc(CNC(=O)CCCn2nc(C)c3c(C)n(-c4ccc(C)cc4)nc3c2=O)cc1OC	-2	0	10	-1	-12	-2	i	4
O=C(Cc1ccc(Br)cc1)NCCc1ccc(Cl)cc1Cl	-20	-14	-1	-1	-13	.	i	-29
S=C(c1c[nH]c2ccccc12)N1CCOCC1	-16	-12	1	4	-9	7	i	-2
Cc1cc(C)c(NC(=O)/C(C#N)=C/c2ccc(OCc3ccc(F)cc3)cc2)c(C)c1	-11	-18	-1	-7	-1	.	i	-17
O=C1CN(C(=O)COc2ccc(Br)cc2)c2ccccc2N1	-6	.	2	0	-3	-12	i	4
c1ccc(C[C@H]2CNCCN2CCc2cccc3ccccc23)cc1	.	-19	-4	3	-2	29	i	.
CCCCN(CC)S(=O)(=O)c1ccc(C(=O)N(CCCN(C)C)c2nc3cc(C)cc(C)c3s2)cc1	-2	.	-12	-10	99*	3	i	0
CCOC(=O)C1CCN(C(=O)CNS(=O)(=O)c2ccc(Br)s2)CC1	9	-8	-4	-3	.	6	i	11
Cc1cc([N+](=O)[O-])cc2c1NC(=O)C2(O)N1CCCCCC1 (centres undefined)	12	3	-3	4	2	-1	i	6
O=C(COC(=O)c1ccccc1Br)Nc1ccc2[nH]c(=O)[nH]c2c1	.	-17	1	0	-17	11	i	.
CC1CCc2c(C(=O)Oc3cccc(-n4cnnn4)c3)csc2C1 (centres undefined)	-20	-8	-7	-4	8	-148	i	2

6 entries from above, arranged by length of the SMILES, low to high.
SMILES	eIF4H FP inh	Yeast UUG start	MT1-MMP act inh	MT1-MMP act inh RFP	CSC inhib	HIV Env fusion	Rce1 inh	PABP FP inh	others
S=C(c1c[nH]c2ccccc12)N1CCOCC1	-16	-12	1	4	-9	7	i	-2
O=C1CN(C(=O)COc2ccc(Br)cc2)c2ccccc2N1	-6	.	2	0	-3	-12	i	4
c1ccc(C[C@H]2CNCCN2CCc2cccc3ccccc23)cc1	.	-19	-4	3	-2	29	i	.
Cc1cc([N+](=O)[O-])cc2c1NC(=O)C2(O)N1CCCCCC1 (centres undefined)	12	3	-3	4	2	-1	i	6
CCOC(=O)C1CCN(C(=O)CNS(=O)(=O)c2ccc(Br)s2)CC1	9	-8	-4	-3	.	6	i	11
CCCn1c(N)c(N(CCOC)C(=O)c2ccc(N3CCCC3=O)cc2)c(=O)[nH]c1=O	.	.	2	8	-9	-20	i	.

(more compounds)
SMILES	eIF4H FP inh	Yeast UUG start	MT1-MMP act inh	MT1-MMP act inh RFP	CSC inhib	HIV Env fusion	Rce1 inh	PABP FP inh	others
C=CCn1c(N)c(C(=O)Nc2ccc(C)c(C)c2)c2nc3ccccc3nc21	-13	-17	-5	1	19	4	i	-6
CCN(C(=O)COC(=O)CNC(=O)c1ccc2ccccc2c1)C1CCS(=O)(=O)C1 (centres undefined)	4	.	0	1	-1	16	i	-6
COc1ccc(OC)c(C(=O)NC(CC(N)=O)c2ccc(NCc3ccc(F)c(F)c3)c([N+](=O)[O-])c2)c1 (centres undefined)	-4	-10	13	0	-18	34	i	-4
O=C(NC(Cc1c[nH]c2ccccc12)C(=O)OCC(=O)c1cccc2ccccc12)c1cccs1 (centres undefined)	-10	-5	0	1	-7	-4	i	-1
CCOC(=O)C1CCN(C(=O)COC(=O)CNC(=O)c2sc3ccccc3c2Cl)CC1	.	-2	1	3	-14	.	.	.
O=C(CSc1nnc2c(n1)[nH]c1ccccc12)NCc1ccccc1F	4	-5	3	-8	-1	18	i	2
CCCOc1ccccc1NC(=O)c1ccc([N+](=O)[O-])cc1	-4	.	-3	-3	-8	5	i	-6
O=C(N/N=C/c1ccc(O)cc1)c1csc2c1CCCC2	0	-2	3	-1	.	.	i	-2
Cc1nnc(NC(=O)CSc2nnc(Cc3cccn3C)n2CCc2ccccc2)s1	-8	-11	-5	1	-10	.	i	8
CCc1nc(CNC(=O)C2CCC(=O)N(Cc3ccccc3F)C2)no1 (centres undefined)	13	-12	0	2	.	-1	i	-8
Cn1c(=O)[nH]c(=O)c2c1nc(Br)n2C/C=N/NC(N)=S	-5	.	.	.	-13	-8	i	5
O=C(CCc1nc2ccccc2[nH]1)Nc1ccc2c(c1)OCO2	9	-3	4	2	-14	.	i	6
COc1ccc(C(=O)c2c3ccc([N+](=O)[O-])cc3[n+]([O-])n2CCCC(N)=O)cc1	.	-7	6	-1	0	-20	i	.
CN(CCC#N)C(=O)CSc1nnc(-c2ccco2)n1N	1	.	0	2	-8	-3	i	5
Nc1nc(-c2c(Cl)cccc2Cl)no1	2	.	-2	3	12	5	i	-4
COC(=O)c1ccc(OCC(O)Cn2nnc3ccccc32)cc1 (centres undefined)	-9	-22	3	3	1	.	i	-8
C[C@H](CO)N1C[C@H](C)[C@@H](CN(C)Cc2ccc(Cl)c(Cl)c2)Oc2c(NC(=O)Cc3ccccc3)cccc2C1=O	.	8	-5	-7	63	-90	.	.
CC(=O)c1cccc(NC(=O)Cn2cc3c(n2)CCCC3)c1	1	-11	-1	1	-2	11	i	5
O=C(Nc1ccc(-n2nncc2-c2ccco2)cc1)c1cccc(F)c1	-20	-13	-4	-4	.	-38	i	-8
Cc1csc(SCC(=O)N2CCN(S(=O)(=O)c3ccc(Cl)cc3)CC2)n1	-10	8	5	-1	3	.	i	3
O=C(O)Cn1nnc(-c2ccc(OCc3ccccc3Cl)cc2)n1	0	.	.	.	1	13	i	4
COc1ccc(Cl)cc1NC(=O)CN(c1ccccc1)S(=O)(=O)N(C)C	-3	-3	1	-2	10	.	i	-1
CCNC(=S)NNC(=O)c1csc2c1CCC(C)C2 (centres undefined)	-5	-10	-11	-3	18	.	i	4
COC(=O)CN1C(c2ccccc2O)Nc2ccc(Br)cc2C1c1ccccc1 (centres undefined)	12	.	-2	2	1	.	i	10
CC1=C(C(=O)N(C(C)C)C(C)C)CC(CC(=O)NC(c2ccccc2)c2ccccc2)C(=O)N1CCC1=CCCCC1 (centres undefined)	.	3	-22	-24	.	14	.	.
C=CCN(c1ccccc1)S(=O)(=O)c1cccc(C(=O)NCC(c2ccc(F)cc2)N2CCOCC2)c1 (centres undefined)	.	8	3	-2	28	.	i	.

4 neighbouring compounds already listed, quoted:
SMILES	eIF4H FP inh	Yeast UUG start	MT1-MMP act inh	MT1-MMP act inh RFP	CSC inhib	HIV Env fusion	Rce1 inh	PABP FP inh	others
COc1ccc(C(=O)c2c3ccc([N+](=O)[O-])cc3[n+]([O-])n2CCCC(N)=O)cc1	.	-7	6	-1	0	-20	i	.
CN(CCC#N)C(=O)CSc1nnc(-c2ccco2)n1N	1	.	0	2	-8	-3	i	5
Nc1nc(-c2c(Cl)cccc2Cl)no1	2	.	-2	3	12	5	i	-4
COC(=O)c1ccc(OCC(O)Cn2nnc3ccccc32)cc1 (centres undefined)	-9	-22	3	3	1	.	i	-8
